Screens: PubChem, National Center for Advancing Translational Sciences (NCATS)
gsp antag – qHTS for Antagonists of gsp, the Etiologic Mutation Responsible for Fibrous Dysplasia/McCune-Albright Syndrome: qHTS; gsp-mutant cells, cAMP HTRF, 30 min; control for the full effect not named in the record; Potency, µM (top dose mostly 76.9 µM), for the others: at the highest dose activity change, negative = inhibition, actives largely listed as inhibitors; 0.4% of 340,000 active; active = falling curve of any shape with a large fitted effect; inconclusive = falling curve, mostly with a smaller effect; inactive = flat or rising curve; cell line not stated here;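 also: intracellular cAMP measured with PDE inhibitor Ro 20-1724 present during compound exposure; potency is read from the fitted curve at half-maximal effect; % is scaled to controls: 0 for no effect and ±100 for the full control effect; nearly all actives have a fitted effect of over 65% in size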
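G418-selected cells were plated in DMEM/10% FBS for 16-24 h at 37C, then treated with compounds plus the PDE inhibitor […] (300 uM solution added) for 30 min at 37C. Intracellular cAMP was measured by HTRF after 30 min lysis at room temperature.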
ClpP mod – qHTS Assay for Activators of ClpP | ATP-dependent Clp protease proteolytic subunit (Bacillus subtilis (strain 168)), P80244 | purified B. subtilis ClpP, FRET peptide cleavage, 20 min | Potency, µM (titrated, usually from 57.5 µM), for inactives: top-dose activity change, negative = active | 1.9% of 340,000 active | AID 651965, 2013; active = well fitted falling curve with a large enough effect; inconclusive = small, poorly fitted or top-dose-only effect; inactive = no such curve, though single readings can be large or run the other way; also: potency is read from the fitted curve at half-maximal effect; the source files actives as falling curves though it sought activators and does not explain the sign; nearly all actives have a fitted effect of over 65% in size; many hits overshoot -100%
Target sequence (P80244 whole entry, looked up): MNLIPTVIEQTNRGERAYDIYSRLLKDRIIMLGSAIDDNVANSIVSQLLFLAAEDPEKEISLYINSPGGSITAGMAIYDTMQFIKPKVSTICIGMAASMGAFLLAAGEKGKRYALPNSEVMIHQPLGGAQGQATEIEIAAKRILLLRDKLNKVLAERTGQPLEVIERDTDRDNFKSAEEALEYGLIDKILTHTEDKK
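Buffer: 100 mM Tris/HCl pH8, 100 mM KCl, 0.05% low protease BSA, 2.5% glycerol, 0.01% Tween-20. ClpP 10 microg/mL final; 20 min RT; delta FRET normalized to ADEP and DMSO controls.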
Sfp PPTase inh – qHTS Assay for Inhibitors of Bacillus subtilis Sfp phosphopantetheinyl transferase (PPTase). 4'-phosphopantetheinyl transferase ffp (Bacillus subtilis), Q9F4F7. Biochemical Sfp PPTase activity, qHTS. Potency, µM, without a hit: max response, negative = inhibition, most hits filed as inhibitors. 3.5% of 310,000 active; active = well fitted inhibition curve with a large enough effect; inconclusive = small, poorly fitted or top-dose-only effect, or another doubt; inactive = no such curve, though single readings can be large or run the other way;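 also: the enzyme is Sfp with the accession as filed and its product quenches rhodamine fluorescence; potency is read from the fitted curve at half-maximal effect; 0% = enzyme reaction without inhibitor and -100% = no enzyme wells; top concentration of the series not given in the record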
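With Hepes-Na pH 7.6 buffer containing 10 mM MgCl2, Sfp (15 nM) modified BHQ-2-YbbR (12.5 uM) using rhodamine-CoA (5 uM). Two reads 30 minutes apart at 525/598 nm yielded each well's rate.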
PINK1 expr mod – A Quantitative High throughput Screen to Identify Chemical Modulators of PINK1 Expression; PINK1 immunofluorescence, high-content cytometry, 24 h; Potency, µM (series often up to 76.6 µM), for inactives: at the top dose activation (PINK1 increase), usual class: activators; 0.2% of 410,000 active; active = well fitted activation curve with a large enough effect; inconclusive = small, poorly fitted or top-dose-only effect; inactive = flat fitted curve, though single readings scatter; cell line not stated here;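 also: potency is read from the fitted curve at half-maximal effect; % of control where 0% means no effect; nearly all actives have a fitted effect of over 65% in size; a mitochondrial uncoupler was the plate control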
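Stable cell line, 250 cells/well, 12 h attachment; compounds pinned at 5 concentrations, 24 h; CCCP control. Fixed with nuclear dye, primary antibodies 12 h at 10 degrees C, secondary plus cell stain; laser-scanning cytometer read.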
Menin-MLL FL inh – qHTS Assay for Inhibitors Targeting the Menin-MLL Interaction in MLL Related Leukemias: Competition With Fluorescein Labeled MLL-derived Peptide. Fluorescence polarization, fluorescein-MLL peptide displacement from menin. FP activity change, % at 61.4 µM. 290,000 tested, under 10 active. AID 1766, 2009; inconclusive = falling polarisation curve, or a change in total fluorescence; inactive = total fluorescence flat and polarisation flat or rising; no compound was filed as active; the % refers to the polarisation; negative = inhibition;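 also: % of control where 0% means no effect; inhibitors lower the polarisation; unlabelled MLL peptide was the positive control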
D2 agonist – Beta-Arrestin HTS for Positive Allosteric Modulators of the Human D2 Dopamine Receptor: Agonists | D(2) dopamine receptor (Homo sapiens), P14416 | DiscoveRx PathHunter D2 beta-arrestin, luminescence, 90 min; 100% = 57 uM dopamine signal | activation, % (no concentration beside the values) | 0.084% of 360,000 active; in the data active = activation above about 40%; inconclusive = about 15% to 40%; inactive = below about 15%; also: compound concentration not given in the record; the text of the record calls up to 30% inactive
Target sequence (P14416 whole entry, looked up): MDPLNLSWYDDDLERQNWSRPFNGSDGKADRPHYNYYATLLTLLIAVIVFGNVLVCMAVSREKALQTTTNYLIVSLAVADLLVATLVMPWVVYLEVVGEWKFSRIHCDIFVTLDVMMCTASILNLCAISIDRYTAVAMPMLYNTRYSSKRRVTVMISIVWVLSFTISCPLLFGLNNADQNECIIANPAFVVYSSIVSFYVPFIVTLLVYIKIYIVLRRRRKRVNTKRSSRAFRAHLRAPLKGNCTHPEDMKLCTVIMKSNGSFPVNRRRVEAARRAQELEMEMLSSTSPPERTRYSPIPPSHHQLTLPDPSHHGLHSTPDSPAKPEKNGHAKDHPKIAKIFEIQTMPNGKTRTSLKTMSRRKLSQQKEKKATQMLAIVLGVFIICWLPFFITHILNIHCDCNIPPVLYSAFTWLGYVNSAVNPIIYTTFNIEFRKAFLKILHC
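DiscoveRx PathHunter D2 beta-arrestin cells (2,100/well) attached overnight, then compound-stimulated 90 min at 37 C in HBSS/10 mM HEPES/0.1% Tween-20 buffer; beta-galactosidase complementation read by luminescence after 1 h at ambient temperature. Dopamine 57 uM final (EC100) as control.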
gsp ag – qHTS for Agonist of gsp, the Etiologic Mutation Responsible for Fibrous Dysplasia/McCune-Albright Syndrome: qHTS; Potency, µM (highest dose often 76.9 µM), for the others: at the highest dose activation (cAMP increase), actives largely listed as activators; gsp mutant cells, cAMP HTRF, 30 min; control for the full effect not named in the record; AID 624287, 2012; 0.13% of 340,000 active; active = well fitted activation curve with a large enough effect; inconclusive = small, poorly fitted or top-dose-only effect, or another doubt; inactive = no such curve, though single readings can be large or run the other way; cell line not stated here;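 also: phosphodiesterase inhibitor Ro 20-1724 added with compounds to block cAMP breakdown; potency is read from the fitted curve at half-maximal effect; nearly all actives have a fitted effect of over 60% in size; about a fifth of the inactives were tested at one dose only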
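Cells stably selected in G418 were plated at 2000/well, grown 16-24 hr, then given compounds in DMSO with the PDE inhibitor […] (300 uM solution added) for 30 min at 37C; cAMP was read by HTRF.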
* = called active by the depositor; ? = inconclusive; / = not tested or not shown; & = joins results of further samples; [ ] = remark or other dose.

SMILES	gsp antag	ClpP mod	Sfp PPTase inh	PINK1 expr mod	Menin-MLL FL inh	D2 agonist	gsp ag
CC(C)CCNC(=O)c1c[nH]c2ccc(S(=O)(=O)N3CCC4(CC3)OCCO4)cc2c1=O	-6.5%	?	2.7%	11.2%	0.3	0.7	8.1%
Cc1nn(-c2ccccc2C(=O)O)c(=O)c2ccccc12	10.0%	-2.2%	22.0%	4.5%[38.3 µM]	2.3	0.0	1.6%
NC(=O)c1ccc(Oc2ccc(Cl)c3ccccc23)c([N+](=O)[O-])c1	-16.9%	1.3%	-0.4%	8.5%	0.9	-1.5	?
O=C(NCc1ccccc1)C1(C(F)(F)F)C/C(=C\CCO)CCCO1 (centres undefined)	7.0%	-0.1%	19.7%	1.4%	-1.1	2.0	/
Cc1nc2ccc(S(=O)(=O)NC(C(=O)NCc3ccco3)C(C)C)cc2s1 (centres undefined)	0.4%	0.8%	-11.5%	4.9%	0.5	-6.8	-1.2%
CCC1Oc2ccccc2N(CC(=O)NCCCN2CCN(CC)CC2)C1=O (centres undefined)	15.6%	0.5%	0.9%	-2.0%	/	0.2	-43.3%[inhibitor]
CCOC(=O)Cn1c(C(=O)OCC)cc2sccc21	-10.3%	-2.9%	?	-1.8%[38.3 µM]	-1.0	-2.7	-51.4%[inhibitor]
CSc1ccc(CNC(=O)C2Cc3cc(S(=O)(=O)N4CCCCC4)ccc3N2C(C)=O)cc1 (centres undefined)	-16.5%	1.4%	-0.8%	-2.2%	/	3.9	-17.4%
O=C(C1CCCN(S(=O)(=O)c2cccc3nonc23)C1)N1CCN(c2cccc(Cl)c2)CC1 (centres undefined)	-35.2%	-1.3%&-0.4%	3.0%	0.5%	1.2	2.1	16.6%
O=S(=O)(/N=C(/Nc1ccccn1)c1ccccc1)c1ccc(F)cc1	1.8%	-2.2%	6.0%	0.3%	0.2	-1.7	?
CCN(CC)CCNc1nc(-c2ccc(OC)cc2)c(-c2ccc(OC)cc2)s1	15.0%	-0.4%	-17.0%	-0.7%	-3.5	0.4	1.1%
O=C(NCCOc1ccc(F)cc1)C1CCC(=O)N(CCCN2CCCC2=O)C1 (centres undefined)	-19.9%	0.1%	6.6%	-0.2%	-1.7	1.8	26.5%
Cc1sc2ncnc(OCC(=O)N3CC(=O)Nc4ccccc43)c2c1C	14.3%	-0.3%	-10.6%	1.6%	1.2	-1.6	-1.8%[15.4 µM]
C=CCNc1nc(Cl)nc(Nc2ccc(OC)cc2)n1	6.5%	0.2%	-2.5%	-5.3%[38.3 µM]	5.9	-2.9	10.8%
COc1ccc(N2C(=O)CC(NCCNc3ccc([N+](=O)[O-])cn3)C2=O)cc1 (centres undefined)	-7.1%	-10.2%	-10.5%	5.8%	2.9	4.4	13.5%
Clc1ccc2oc(-c3cccnc3NCc3ccccc3)nc2c1	-5.3%	?	?	0.3%	-1.9	-3.6	-1.1%
Cn1c2ccccc2c(=O)c2c(=O)n(C3CCCCC3)c(-c3cccs3)nc21	2.9%	-1.4%	-10.7%	-1.5%[38.3 µM]	0.7	-3.2	22.4%
O=C(O)C(c1ccccc1)N1CCCC1 (centres undefined)	3.8%	0.4%	15.9%	-2.4%	-2.1	0.5	-21.6%
O=S(=O)(c1ccccc1)N(CC(O)CN1CCCCC1)c1ccccc1 (centres undefined)	-5.3%	1.8%	7.1%	-0.8%	-2.6	-3.1	-9.6%
COc1ccc(C2=CC(=O)C[C@H](CN3C(=O)c4ccccc4C3=O)N(C(=O)OC(C)(C)C)O2)cc1	-21.3%	-12.4%	/	1.0%	/	-0.7	/

Two records drawn at random from those above:
SMILES	gsp antag	ClpP mod	Sfp PPTase inh	PINK1 expr mod	Menin-MLL FL inh	D2 agonist	gsp ag
Clc1ccc2oc(-c3cccnc3NCc3ccccc3)nc2c1	-5.3%	?	?	0.3%	-1.9	-3.6	-1.1%
O=S(=O)(/N=C(/Nc1ccccn1)c1ccccc1)c1ccc(F)cc1	1.8%	-2.2%	6.0%	0.3%	0.2	-1.7	?

Other results.
SMILES	gsp antag	ClpP mod	Sfp PPTase inh	PINK1 expr mod	Menin-MLL FL inh	D2 agonist	gsp ag
CCOC(=O)C1=C(C)OC2(O)c3ccccc3C(=O)C12O (centres undefined)	-6.3%	-1.7%	-11.2%	5.7%	5.2	-17.3	14.1%
CC1CCN(CCNC(=O)CCS(=O)(=O)c2ccc(Br)cc2)CC1	8.3%	-3.4%	6.0%	-0.1%	1.0	-2.0	20.4%
CC(OC(=O)c1cccc(S(=O)(=O)Nc2cccc(C(F)(F)F)c2)c1)C(=O)Nc1ccc2c(c1)OCCO2 (centres undefined)	-33.5%	-0.9%	20.6%	?	3.0	0.1	-4.6%
CC1Sc2ccc(S(=O)(=O)CCC(=O)NCc3cccs3)cc2NC1=O (centres undefined)	-11.6%	-0.2%	9.9%	0.7%	/	-1.9	12.7%
CCn1c(SCC(=O)Nc2nncs2)nnc1C(C)NC(=O)c1ccccc1Br (centres undefined)	1.9%	/	7.8%	1.6%	-7.4	-2.9	0.3%[15.4 µM]
COc1cccc(/C=C/C(=O)OCC(=O)NCCNC(=O)COC(=O)/C=C/c2cccc(OC)c2)c1	-2.4%	-4.7%	/	14.7%	/	0.4	5.7%
CCOC(=O)N1CCN(C(=O)c2ccc(NS(=O)(=O)c3ccc(F)cc3)cc2)CC1	-13.1%	0.4%	8.9%	1.0%	-2.0	2.0	-0.3%
Cc1ccc(-c2nc(CSCC(=O)N3CCN(c4ccccn4)CC3)c(C)o2)cc1	?	-23.3%	-3.6%	2.9%	-1.1	0.4	-16.9%
CCCc1ccc(Oc2coc3cc(OCC(=O)Nc4ccccc4C)ccc3c2=O)cc1	-0.2%	-0.8%	10.3%	8.5%	4.0	-0.3	7.1%
C(=C\c1ccco1)/c1ccc2ccccc2n1	-24.2%	/	50.1µM*	5.1%	?	0.2	-0.5%[15.4 µM]
COc1cccc(C(=O)N2CCN(Cc3nc(CC4CC4)no3)CC2)c1	11.4%	1.1%	8.9%	-1.4%	5.1	-0.5	?
CCCCOC(=O)Nc1nnc(C(C)C)s1	8.6%	/	9.3%	-0.3%	-0.3	-4.9	-33.2%[15.4 µM]
COc1ccc(CCNc2ccncn2)cc1OC	4.5%	-0.4%	5.7%	2.0%[38.3 µM]	-2.8	0.8	0.9%
O=C(Cn1nnc(-c2ccccc2F)n1)N1CCCCC1	3.9%	0.4%	7.2%	1.9%	0.0	-4.1	7.4%
Cc1oc(-c2ccccc2)cc1C(=O)Nc1ccccc1	-24.0%	0.4%	-1.3%	1.9%	1.2	2.6	?
CCOC(=O)c1ccc(NS(=O)(=O)c2ccc3[nH]c(=O)[nH]c3c2)cc1	0.6%	-2.0%	22.4µM*	-2.3%[38.3 µM]	-0.2	-1.5	7.5%
CC(OC(=O)Cc1c[nH]c2ccccc12)C(=O)Nc1ccc(S(N)(=O)=O)cc1 (centres undefined)	-1.3%	-1.1%	/	3.4%	/	1.1	-40.7%[inhibitor]
COc1ccc(S(=O)(=O)NCC2CCC(C(=O)NCc3ccco3)CC2)cc1 (centres undefined)	-3.0%	-2.2%	23.8%	8.4%	-0.1	0.8	2.4%
CCOC(=O)C(C(=O)Nc1nccs1)C1CCCCC1 (centres undefined)	3.5%	-2.3%	-7.8%	0.4%	-1.3	-0.3	1.6%
Nc1nc2nonc2nc1N1CCCCC1	3.4%	1.0%	5.1%	-0.3%	-7.8	-0.6	18.5%
O=C(CCN1C(=O)c2ccccc2C1=O)C1=NN[C@@H]2C(=O)N(c3ccc4c(c3)OCO4)C(=O)[C@H]12	10.0%	-0.1%	-4.0%	0.4%	1.0	-4.5	-1.2%[15.4 µM]
CCN(CC)S(=O)(=O)c1cccc(NC(=O)CN(C)Cc2cccc(OC)c2)c1	-14.1%	/	89.1µM*	-1.0%	-0.9	1.5	-7.7%[15.4 µM]
Cc1nc(NC(=O)c2ccco2)sc1-c1csc(Nc2ccc(Cl)cc2Cl)n1	-7.8%	-15.8%	-4.0%	-0.5%	5.3	1.2	13.8%
CCn1nc([N+](=O)[O-])c2c(-c3nc4ccccc4o3)c(N)n(CCCOC)c2c1=O	?	-1.0%	-8.9%	-0.7%	1.4	1.4	-5.5%[15.4 µM]
CC(=O)c1cc(N2CCC(C(=O)O)CC2)ccc1[N+](=O)[O-]	7.0%	/	11.1%	-1.4%	4.0	-1.8	1.0%
O=C(CNC(=O)c1ccccc1)NCCc1nc2ccccc2[nH]1	6.8%	-1.4%	9.5%	1.6%	4.1	-1.9	-2.4%
CCOC(=O)c1c(CN(CC)CC)oc2cc(Br)c(O)cc12	5.8%	-3.2%	5.4%	-0.3%	-1.4	-4.2	5.3%
Cc1cccc(N=C2NC(=O)CS2)c1	6.5%	-1.0%	13.5%	-0.7%	-1.3	-3.4	-13.3%
Cc1cc(NC(=O)CN2CCOCC2)n(-c2nc3ccccc3s2)n1	5.3%	-2.2%	-17.1%	8.9%	1.8	-0.6	?
O=c1c2cc(NC(=S)NCc3cccnc3)ccc2nc2n1CCCCC2	-6.9%	/	3.2%	1.5%	1.0	1.8	30.6%
CC(=O)c1cccc(NC(=O)CN2CCc3cc4c(cc3C2)OCCCO4)c1	-6.4%	-9.2%	3.6%	0.1%	4.5	-4.4	/
COc1cc2cc(CCOC(=O)CCCC(=O)O)oc(=O)c2cc1OC	1.2%	-26.9%	/	-0.5%	/	-2.3	-4.1%
CC1CCN(S(=O)(=O)c2ccc3ncn(CC(=O)N(C)Cc4ccccc4)c(=O)c3c2)CC1	4.0%	-0.5%	11.9%	-1.0%	-3.2	-1.2	5.3%
